AID923 = qHTS Assay for Allosteric/Competitive Inhibitors of Caspase-1: Spectroscopic Profiling in AFC Spectral Region; compound fluorescence, AFC spectral region (405/520 nm); almost no hit is shown here; Potency, µM (top dose mostly 57.5 µM), without a hit: top-dose fluorescence increase, usual class: activators; 1.1% of 75,000 active; active = well fitted activation curve with a large enough effect; inconclusive = small, poorly fitted or top-dose-only effect;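 also: potency is read from the fitted curve at half-maximal effect; 0% is about no effect; scaled to a free AFC standard on each plate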
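Baseline compound fluorescence (AFC region, 405 nm ex/520 nm em) taken from the intercept of kinetic reads with 50 nM caspase-1 and 5 uM Ac-WEHD-AFC; normalized to an on-plate AFC standard curve; compounds titrated up to 57 uM.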
Resorufin autofl = compounds fluorescent in resorufin spectral region | Compound fluorescence, resorufin region 547/598 nm, buffer; stronger effect = higher value | max dye-equivalent concentration, M | 0.04% of 59,000 active; active = above 10 nM dye equivalent; inconclusive = 1 to 10 nM; inactive = 1 nM or less; a few of its hits are not listed in these tables; also: highest value over a series up to 38 µM
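Read-out: intrinsic compound fluorescence at ex 547/em 598 nm after 15 min at RT in pH 8.0 Tris (100 mM). Values expressed as resorufin-equivalent concentration from per-plate standard series.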
A647 autofl = A647 region autofluorescence | 59,000 tested, under 10 active | Compound fluorescence, A647 channel (570/671 nm), Tris buffer | max dye-equivalent concentration, M | AID 592; active means above 1 µM dye equivalent; inconclusive means 0.1 to 1 µM; inactive means 0.1 µM or less;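 also: values scaled relative to a standard on each plate; highest value over a series up to 38 µM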
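Tris 100 mM pH 8.0; cpd + A647 stds pin-transferred; 15 min RT; CCD imager, ex 570/em 671. Output = A647-equivalent conc. per cpd conc.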
TSHR agonist = activates the human thyroid stimulating hormone receptor; Potency, µM (doses to about 57.1 µM), for the others: at the highest dose activation, actives largely listed as activators; HEK293-CNG-TSHR cells (CNG channel as cAMP sensor), membrane potential dye, cAMP; 0.48% of 73,000 active; active = well fitted activation curve of enough size with the parental cells flat; inconclusive = any curve in the parental cells; inactive = parental cells flat and receptor cells flat or falling; also: potency is read from the fitted curve at half-maximal effect; % of control where 0% means no effect; weak receptor curves with flat parental cells got no call and are not listed
Target sequence (P16473 whole entry, looked up): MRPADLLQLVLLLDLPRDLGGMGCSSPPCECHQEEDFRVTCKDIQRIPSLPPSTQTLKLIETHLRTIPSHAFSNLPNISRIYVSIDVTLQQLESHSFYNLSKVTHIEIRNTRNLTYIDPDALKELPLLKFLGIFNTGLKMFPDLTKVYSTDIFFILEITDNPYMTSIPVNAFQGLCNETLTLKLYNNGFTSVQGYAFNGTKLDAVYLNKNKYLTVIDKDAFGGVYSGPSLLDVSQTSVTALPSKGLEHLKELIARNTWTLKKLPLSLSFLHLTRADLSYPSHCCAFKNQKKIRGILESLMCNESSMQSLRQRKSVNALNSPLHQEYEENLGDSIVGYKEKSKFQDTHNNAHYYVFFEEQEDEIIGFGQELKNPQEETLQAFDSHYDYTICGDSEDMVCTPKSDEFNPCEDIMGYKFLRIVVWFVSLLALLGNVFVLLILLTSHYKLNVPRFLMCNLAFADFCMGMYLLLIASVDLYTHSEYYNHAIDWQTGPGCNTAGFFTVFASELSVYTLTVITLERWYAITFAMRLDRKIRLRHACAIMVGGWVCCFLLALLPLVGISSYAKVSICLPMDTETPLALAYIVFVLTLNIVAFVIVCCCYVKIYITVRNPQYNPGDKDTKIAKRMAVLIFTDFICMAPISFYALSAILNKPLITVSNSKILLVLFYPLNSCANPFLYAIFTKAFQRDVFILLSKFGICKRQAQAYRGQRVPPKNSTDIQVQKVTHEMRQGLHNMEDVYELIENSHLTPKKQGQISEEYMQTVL
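HEK 293 cells stably expressing TSHR and a modified CNG channel, with CNG-only parental cells as counterscreen, were preloaded 60 min at room temperature with membrane potential dye containing 100 uM RO 20-1724. Compound exposure was 30 min, and depolarization was read as fluorescence at 590 nm.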
A488 fluor = compound fluoresces in the A488 spectral region | AID 591 | compound autofluorescence, A488 spectral region, dye equivalency; stronger effect = higher value | 0.1% of 59,000 active | max dye equivalency, M; active = above 10 nM dye equivalent; inconclusive = 1 to 10 nM; inactive = 1 nM or less; about half of its hits are not listed in these tables;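 also: highest value over a series up to 38 µM; compound alone in buffer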
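Spectroscopic profiling in the A488 region: compounds in pH 8.0 Tris (100 mM), 15 min RT, CCD imaging with 480 nm excitation and 540 nm emission; responses normalized against A488 dye standards.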
The depositor's hits bear a star; [ ] = remark or other dose. A portion of the library; the hit share may differ from the screen's.

Preview, 2 compounds:
For Cc1ccccc1-c1nc(CN2CCC(C(=O)NCCCN3CCOCC3)CC2)c(C)o1 the results were AID923 1.4%, Resorufin autofl inactive, A647 autofl 2e-08, TSHR agonist 4% and A488 fluor inactive.
COc1cc(C2N(c3ccc(Cl)cc3)C(=O)C3CCCN32)cc(OC)c1OC (stereo not drawn) was read as AID923 1.2% and TSHR agonist 1%.

Main list, previewed entries included:
For Cc1ccccc1-c1nc(CN2CCC(C(=O)NCCCN3CCOCC3)CC2)c(C)o1 the results were AID923 1.4%, Resorufin autofl inactive, A647 autofl 2e-08, TSHR agonist 4% and A488 fluor inactive.
COc1cc(C2N(c3ccc(Cl)cc3)C(=O)C3CCCN32)cc(OC)c1OC (stereo not drawn) was read as AID923 1.2% and TSHR agonist 1%.
For O=C(C1CCCO1)N1CCN(c2c3c(nc4cc(-c5ccc(F)cc5)nn24)CCC3)CC1 (stereo not drawn) the results were AID923 0.4%, Resorufin autofl inactive, A647 autofl 1e-08, TSHR agonist -4% and A488 fluor inactive.
`COc1ccccc1N1CCN(C(=O)c2cc(C3CC3)on2)CC1` gave AID923 0.1% and TSHR agonist 2%.
`CCOC(=O)c1ccc(N2C(=O)c3n[nH]c(C)c3C2c2ccc(OC)c(OC)c2)cc1` (stereo not drawn) gave AID923 2.9%, Resorufin autofl inactive, A647 autofl 4.4e-08, TSHR agonist inconclusive and A488 fluor inactive.
C=CCN1CCc2c(cc(O)c(O)c2Cl)[C@H](c2ccccc2)C1 was read as AID923 1.2%, Resorufin autofl inactive, A647 autofl 1e-09, TSHR agonist 24% and A488 fluor inactive.
For Cc1ccc(Nc2nc(N)nc(CN3CCN(C)CC3)n2)cc1C the results were AID923 -0.2%, Resorufin autofl inactive, A647 autofl 1e-09, TSHR agonist 0% and A488 fluor inactive.
`O=C(Nc1cccc(C(F)(F)F)c1)C1C2CC3OC(=O)C1C3C2` (stereo not drawn) gave AID923 0.7%, Resorufin autofl inactive, A647 autofl 1e-09, TSHR agonist 8% and A488 fluor inactive.
`Clc1ccc2c(c1)[C@H]1OCC[C@H]1[C@@H](c1ccco1)N2` gave AID923 1.4% and TSHR agonist 0%.
Screening Cc1cc(NC(=O)C2CCCN(S(=O)(=O)c3c(C)noc3C)C2)n[nH]1 (stereo not drawn) returned AID923 2.4% and TSHR agonist 2%.
`COc1cccc(CN2CCN(C(=O)c3cccc4ccccc34)CC2)c1OC` gave AID923 -0.3%, Resorufin autofl inactive, A647 autofl 3.6e-09, TSHR agonist 12% and A488 fluor inactive.
Screening CCOc1ccc(C(=O)NCc2ccco2)cc1 returned AID923 0.3% and TSHR agonist 12%[11.4 µM].
For CCN1CCN(CC(=O)NC2CCCCC2)C(=O)C1=O the results were AID923 -0.2% and TSHR agonist 2%.
`CCOC(=O)C1=C(N)n2c(s/c(=C\c3ccco3)c2=O)=C(C(=O)OC(C)C)C1c1ccco1` (stereo not drawn) gave Resorufin autofl inactive, A647 autofl 6.9e-08 and A488 fluor inactive.
Screening CCC=O returned AID923 3.0% and TSHR agonist 4%.
Screening Cc1cc(C)c(C(=O)OCCNC(=O)c2cccnc2)cc1C returned AID923 -0.4%, Resorufin autofl inactive, A647 autofl 6e-09, TSHR agonist 20% and A488 fluor inactive.
For CCOC(=O)C1=C(N)n2c(s/c(=C\c3cccnc3)c2=O)=C(C#N)C1c1cccnc1 (stereo not drawn) the results were AID923 0.3%, Resorufin autofl inactive, A647 autofl 2.4e-08, TSHR agonist 2% and A488 fluor inactive.
For CN(C)c1ccc(NC(=O)CSCc2nc3c(nnn3Cc3ccc(F)cc3)c(=O)[nH]2)cc1 the results were AID923 0.9%, Resorufin autofl inactive, A647 autofl 1e-09, TSHR agonist -5% and A488 fluor inactive.
For Clc1ccc(SCCCCn2cncn2)cc1 the results were AID923 1.8%, Resorufin autofl inactive, A647 autofl 3.7e-09, TSHR agonist -19% and A488 fluor inactive.
COc1ccccc1NC(=O)CSc1nnc(C)o1 was read as AID923 0.4%, Resorufin autofl inactive, A647 autofl 6.5e-08, TSHR agonist -1% and A488 fluor inactive.
For CC(=O)N(Cc1cc2cc(C)c(C)cc2n2nnnc12)CC1COCCO1 (stereo not drawn) the results were AID923 -6.2%, Resorufin autofl inactive, A647 autofl 1.4e-08, TSHR agonist 7% and A488 fluor inactive.
Screening O=C(CSc1ncnc2nc[nH]c12)N1CCOCC1 returned AID923 -0.2% and TSHR agonist -1%[11.4 µM].
For CCCCOC(=O)C1=C(C)Nc2ncnn2C1c1ccc(OC)c(OC)c1 (stereo not drawn) the results were AID923 1.9%, Resorufin autofl inactive, A647 autofl 1e-09, TSHR agonist 12% and A488 fluor inactive.
Oc1ccc2c(c1)oc1cc(O)ccc12 was read as AID923 -1.6%, Resorufin autofl inactive, A647 autofl 2.7e-08, TSHR agonist -2% and A488 fluor inactive.
For COc1ccc(S(=O)(=O)N2CCCC2C(=O)Nc2nc3c(s2)CCCC3)cc1 (stereo not drawn) the results were AID923 0.0%, Resorufin autofl inactive, A647 autofl 2e-09, TSHR agonist -14% and A488 fluor inactive.
Screening CC(=O)C1C(c2cccc(F)c2)NC(=O)NC1(O)C(F)(F)F (stereo not drawn) returned AID923 0.6%, Resorufin autofl inactive, A647 autofl 1e-09, TSHR agonist -2% and A488 fluor inactive.
Cc1ccc(S(=O)(=O)CC(=O)Nc2ccc(S(=O)(=O)Nc3onc(C)c3C)cc2)cc1 was read as AID923 0.1%, Resorufin autofl inactive, A647 autofl 6.5e-09, TSHR agonist 3% and A488 fluor inactive.
For CC(C)/C=C1\CCCCC1N(C)C(=O)NC(C)C (stereo not drawn) the results were AID923 -1.6% and TSHR agonist inconclusive.
COc1ccc(CCC(=O)NCc2cnn(C)c2)cc1 was read as AID923 -0.9%, Resorufin autofl inactive, A647 autofl 3.6e-08, TSHR agonist 6% and A488 fluor inactive.
`Nc1ccc(C(=O)c2ccc3c(c2)OCCO3)cc1N` gave AID923 2.8% and TSHR agonist 10%.

Four compounds drawn at random from the list so far:
COc1ccc(CCC(=O)NCc2cnn(C)c2)cc1 was read as AID923 -0.9%, Resorufin autofl inactive, A647 autofl 3.6e-08, TSHR agonist 6% and A488 fluor inactive.
`Nc1ccc(C(=O)c2ccc3c(c2)OCCO3)cc1N` gave AID923 2.8% and TSHR agonist 10%.
For CC(C)/C=C1\CCCCC1N(C)C(=O)NC(C)C (stereo not drawn) the results were AID923 -1.6% and TSHR agonist inconclusive.
For CC(=O)N(Cc1cc2cc(C)c(C)cc2n2nnnc12)CC1COCCO1 (stereo not drawn) the results were AID923 -6.2%, Resorufin autofl inactive, A647 autofl 1.4e-08, TSHR agonist 7% and A488 fluor inactive.

The listing continues.
For COc1ccc(C2(O)CCN(C(=O)c3ccc4c(c3)OCO4)CC2)cc1 the results were AID923 -0.5%, Resorufin autofl inactive, A647 autofl 4.1e-08, TSHR agonist -5% and A488 fluor inactive.
Screening CSc1ccc(Cl)c(C(=O)NCC(C)C)c1 returned AID923 3.2%, Resorufin autofl inactive, A647 autofl 4e-08, TSHR agonist inconclusive and A488 fluor inactive.
COc1ccc(-n2cnc3cc(NCc4cccs4)ccc32)cc1 was read as AID923 -1.6% and TSHR agonist inconclusive.
`Nc1nc2n(n1)C(c1cccs1)CC(c1ccccc1)N2` (stereo not drawn) gave AID923 0.1%, Resorufin autofl inactive, A647 autofl 2.5e-09, TSHR agonist -11% and A488 fluor inactive.
For COc1cccc(-c2nnc(SCC(N)=O)n2-c2ccc(Cl)cc2)c1 the results were AID923 -1.8%, Resorufin autofl inactive, A647 autofl 7.4e-08, TSHR agonist 23% and A488 fluor inactive.
Screening Cc1n[nH]c(C)c1S(=O)(=O)N(CC(=O)N1CCc2ccccc21)c1ccc(C(C)C)cc1 returned AID923 0.2% and TSHR agonist -11%.
`CC(C)OC(=O)CSc1nnc(-c2cccnc2)n1Cc1ccccc1` gave AID923 1.0%, Resorufin autofl inactive, A647 autofl 5.9e-09, TSHR agonist 14% and A488 fluor inactive.
For Cn1nnc2cc(C(=O)Nc3cccnc3)ccc21 the results were AID923 -2.0%, Resorufin autofl inactive, A647 autofl 1e-09, TSHR agonist 7% and A488 fluor inactive.
Screening CCOC(=O)N1CCC(NC(=O)c2cccc3c2C(=O)N(CCOC)C3)CC1 returned AID923 2.1% and TSHR agonist 6%.
Screening Cc1c(NC(=O)c2cccc(NC(=O)c3ccco3)c2)cccc1C(=O)O returned AID923 1.7%, Resorufin autofl inactive, A647 autofl 1.2e-08, TSHR agonist -1% and A488 fluor inactive.
For O=C(CSc1nnc(Cc2cc(=O)[nH]c(=O)[nH]2)n1-c1ccc(Cl)cc1)NCC1CCCO1 (stereo not drawn) the results were AID923 1.5%, Resorufin autofl inactive, A647 autofl 5.4e-08, TSHR agonist -7% and A488 fluor inactive.
Screening CN(C)C(=O)c1ccc(-c2cncnc2NCCN2CCOCC2)cc1 returned AID923 0.4%, Resorufin autofl inactive, A647 autofl 2e-09, TSHR agonist 0% and A488 fluor inactive.
`O=c1nc(NCc2ccco2)sc2ncccc12` gave AID923 0.8%, Resorufin autofl inactive, A647 autofl 3e-08, TSHR agonist -9% and A488 fluor inactive.
For Nc1nnc(SCC(=O)Nc2ccccc2N2CCOCC2)s1 the results were AID923 2.4%, Resorufin autofl inactive, A647 autofl 2e-09, TSHR agonist -18% and A488 fluor inactive.
`Cc1cc(C)nc(Sc2ccc3nnnn3n2)n1` gave AID923 2.6%, Resorufin autofl inactive, A647 autofl 1.7e-09, TSHR agonist -2% and A488 fluor inactive.
For C/C(=N\O)C1(C)N(O)C(C)(C)C(c2ccco2)=[N+]1[O-] (stereo not drawn) the results were Resorufin autofl inactive, A647 autofl 1.6e-08 and A488 fluor inactive.
`CCOC(=O)C1=C(N)OC2=C(C(=O)CC(C)(C)C2)C1c1ccco1` (stereo not drawn) gave AID923 2.3%, Resorufin autofl inactive, A647 autofl 5.3e-09, TSHR agonist inconclusive and A488 fluor inactive.
Screening O=C(Nc1ccc(NC(=O)c2ccco2)cc1)c1cnccn1 returned AID923 -0.8% and TSHR agonist inconclusive.
`O=C(NC1CCS(=O)(=O)C1)c1ccc(S(=O)(=O)NCC2CCCO2)cc1` (stereo not drawn) gave AID923 -0.9%, Resorufin autofl inactive, A647 autofl 1e-09, TSHR agonist -5% and A488 fluor inactive.
COC(=O)c1ccc(C(NC(=O)OCc2ccccc2)/C(F)=C/[C@@H](C)C(=O)NCCO)cc1 (stereo partly drawn) was read as AID923 -0.9% and TSHR agonist 4%.
`CCCc1cc(-c2ccc(O)c(OCC)c2)c(C#N)c(N)n1` gave AID923 -1.0%, Resorufin autofl inactive, A647 autofl 4.2e-09, TSHR agonist inconclusive and A488 fluor inactive.
CC(=O)c1ccc(N2CCN(C(=O)C3CCCN(S(=O)(=O)c4cnc[nH]4)C3)CC2)cc1 (stereo not drawn) was read as AID923 -2.0%, Resorufin autofl inactive, A647 autofl 2.7e-08, TSHR agonist -5%[11.4 µM] and A488 fluor inactive.
For CC(C)c1nc2sc3c(NCc4ccco4)ncnc3c2c2c1COC(C)(C)C2 the results were AID923 -0.9%, Resorufin autofl inactive, A647 autofl 6.5e-09, TSHR agonist 16% and A488 fluor inactive.
For CC(=O)Nc1cccc(C(=O)Oc2cccc(C)c2)c1O the results were AID923 0.8%, Resorufin autofl inactive, A647 autofl 2.1e-08, TSHR agonist 5% and A488 fluor inactive.
For CCCCn1c(SCc2nnc(-c3ccccc3)o2)nc2c1c(=O)n(C)c(=O)n2C the results were AID923 0.0%, Resorufin autofl inactive, A647 autofl 6.3e-09, TSHR agonist inconclusive and A488 fluor inactive.
CC(Nc1ccc(Br)cn1)c1cc(Cl)ccc1O (stereo not drawn) was read as AID923 -0.9%, Resorufin autofl inactive, A647 autofl 1e-09, TSHR agonist 9% and A488 fluor inactive.

Source: PubChem BioAssay
